Source: PubChem
TRPML1 inh – inhibitors of human TRPML1 channel | 0.02% of 390,000 active | TRPML1-inducible cells, Ca2+ dye fluorescence, FDSS; hits give low values; inhibition of EC80 agonist-evoked calcium signal | AID 624415 | activity change, negative = inhibition, % (concentration not given with the values); in the data active means activity change below about -50%; inconclusive means about -30% to -50%; inactive means above about -30%;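 note: stimulus is agonist 54-4 at its EC80 concentration; % is set by controls: 0 for no effect and ±100 for the full control effect; compound concentration not given in the record; the text of the record puts the active cut at -80%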
Target sequence (Q9GZU1 whole entry, looked up): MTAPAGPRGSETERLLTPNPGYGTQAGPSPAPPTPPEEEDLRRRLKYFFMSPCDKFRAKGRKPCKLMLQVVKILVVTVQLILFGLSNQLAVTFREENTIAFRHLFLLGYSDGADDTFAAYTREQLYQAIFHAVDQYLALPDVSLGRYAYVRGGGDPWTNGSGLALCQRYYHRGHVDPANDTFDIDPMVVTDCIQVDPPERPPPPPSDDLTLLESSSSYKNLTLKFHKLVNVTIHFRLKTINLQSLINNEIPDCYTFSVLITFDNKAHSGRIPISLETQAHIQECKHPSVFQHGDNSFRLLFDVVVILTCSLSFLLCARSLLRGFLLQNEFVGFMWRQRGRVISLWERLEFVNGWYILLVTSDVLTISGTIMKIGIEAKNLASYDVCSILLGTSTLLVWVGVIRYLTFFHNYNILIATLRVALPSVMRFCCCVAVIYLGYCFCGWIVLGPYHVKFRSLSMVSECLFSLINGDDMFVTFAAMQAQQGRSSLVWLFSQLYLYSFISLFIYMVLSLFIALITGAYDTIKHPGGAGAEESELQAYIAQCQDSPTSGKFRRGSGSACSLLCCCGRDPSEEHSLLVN
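Tet-induced TRPML1-DL cells loaded with Ca8 no-wash calcium dye were read kinetically on FDSS. Compound addition was followed by EC80 agonist 54-4 (4 uM final); inhibition was read over 110 s.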
TRPV1 PAM – potentiators of human vanilloid receptor 1 (TRPV1); 0.02% of 320,000 active; potentiation, % at 8.33 µM; TRPV1-expressing cells, Fluo-8 calcium influx, capsaicin EC20 potentiation; host cell line not named in the record; control for the full effect not named in the record; Q8NER1; active means potentiation above 80%; inconclusive means 30% to 80%; inactive means below 30%; note: 0% is about no effect
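Fluo-8 calcium influx in TRPV1-expressing cells, kinetic read (ex 480/em 520 nm). Compound added and read 3 min for agonist activity, followed by capsaicin at EC20 final and 2 min further read for enhancement.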
ClpP mod – qHTS Assay for Activators of ClpP; AID 651965, 2013; ATP-dependent Clp protease proteolytic subunit (Bacillus subtilis (strain 168)), P80244; purified B. subtilis ClpP, FRET peptide cleavage, 20 min; Potency, µM (top dose mostly 57.5 µM), without a hit: at the top dose activity change, negative = active; 1.9% of 340,000 active; active = well fitted falling curve with a large enough effect; inconclusive = small, poorly fitted or top-dose-only effect; inactive = no such curve, though single readings can be large or run the other way; note: potency is the fitted concentration of half-maximal effect; the source files actives as falling curves though it sought activators and does not explain the sign; nearly all actives have a fitted effect of over 65% in size; many hits overshoot -100%
Target sequence (P80244 whole entry, looked up): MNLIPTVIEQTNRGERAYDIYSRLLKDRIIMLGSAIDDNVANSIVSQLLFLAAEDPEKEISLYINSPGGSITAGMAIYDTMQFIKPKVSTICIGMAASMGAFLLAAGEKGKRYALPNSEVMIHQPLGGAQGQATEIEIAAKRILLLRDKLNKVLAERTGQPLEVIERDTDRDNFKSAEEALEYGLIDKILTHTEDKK
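ClpP 10 microg/mL final, pH 8 Tris/KCl buffer with BSA, glycerol, Tween-20; compound pinned in; FRET-FV substrate; RT 20 min; Ex320/Em430; ΔFRET vs ADEP 5.8 microM, DMSO, no enzyme.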
PINK1 expr mod – PINK1 expression modulation. PINK1 immunofluorescence, high-content cytometry, 24 h. Potency, µM (doses to about 76.6 µM), inactives show at the highest dose activation (PINK1 increase), actives largely listed as activators. 0.2% of 410,000 active. AID 624263; active = well fitted activation curve with a large enough effect; inconclusive = small, poorly fitted or top-dose-only effect; inactive = flat fitted curve, though single readings scatter; cell line not stated here;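 note: potency is the fitted concentration of half-maximal effect; % of control where 0% means no effect; nearly all actives have a fitted effect of over 65% in size; a mitochondrial uncoupler was the plate control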
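Cells are seeded, rested 12 hours, then given compound at five concentrations or DMSO for 24 hours. After fixation, blocking and antibody staining, PINK1 amount and mitochondrial localization are scored; CCCP serves as control.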
Sfp PPTase inh – Sfp phosphopantetheinyl transferase inhibition; Q9F4F7; Biochemical Sfp PPTase activity, qHTS; Potency, µM, for the others: max response, negative = inhibition, most hits filed as inhibitors; 3.5% of 310,000 active; AID 1490; active = well fitted inhibition curve with a large enough effect; inconclusive = small, poorly fitted or top-dose-only effect, or another doubt; inactive = no such curve, though single readings can be large or run the other way;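 note: the enzyme is Sfp with the accession as filed and its product quenches rhodamine fluorescence; potency is the fitted concentration of half-maximal effect; 0% = enzyme reaction without inhibitor and -100% = no enzyme wells; top concentration of the series not given in the record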
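Reaction rates are the 30-min fluorescence difference (ex 525, em 598 nm) in wells containing 15 nM Sfp, 5 uM rhodamine-CoA and 12.5 uM BHQ-2-YbbR at pH 7.6 with 10 mM MgCl2.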
Menin MLL FP FL – inhibitors of human menin-MLL interaction, wild-type MLL peptide. FP activity change, % at 61.4 µM. Fluorescence polarization, fluorescein-MLL peptide displacement from menin. AID 1766. 290,000 tested, under 10 active; inconclusive = falling polarisation curve, or a change in total fluorescence; inactive = total fluorescence flat and polarisation flat or rising; no compound was filed as active; the % refers to the polarisation; negative = inhibition;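 note: % of control where 0% means no effect; inhibitors lower the polarisation; unlabelled MLL peptide was the positive control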
TRPML1 ag – agonists of human TRPML1 channel | Q9GZU1 | TRPML1-expressing cells, Ca2+ dye fluorescence, FDSS; host cell line not named in the record; reference of the full effect not given here | activation, % (concentration not given with the values) | 0.12% of 410,000 active; in the data active = activation above about 50%; inconclusive = about 30% to 50%; inactive = below about 30%; note: 0% is about no effect; the text of the record puts the active cut at 80%
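Tetracycline-induced TRPML1-DL cells are seeded and incubated overnight before loading with a no-wash Ca2+ dye and quencher. Agonist activity is taken from the 110 s fluorescence read following compound pin-transfer on an FDSS, before EC80 54-4 challenge.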
* marks the source's active call; other numbers are inactive results; ? = inconclusive; . = not tested or not shown; & = joins results of further samples; [ ] = dose if it differs, or a comment.

SMILES,TRPML1 inh,TRPV1 PAM,ClpP mod,PINK1 expr mod,Sfp PPTase inh,Menin MLL FP FL,TRPML1 ag
Cc1cc(Cl)ccc1N=c1ssnc1Cl,2,-7,0.7%,-0.3%,7.1µM*,-0.7,-0.2
CN(Cc1nc(Cc2ccccc2F)no1)Cc1cccc2ncccc12,3,1,.,2.0%,-5%,2.3,4.0
CCCCCCCNC(=O)C1(CC2CC(c3ccc(Cl)cc3)=NO2)CCN(C(=O)Cc2ccc(F)cc2)CC1 (stereo not given),-4,-4,0.1%,0.5%,16%,3.5,0.8
CCOCCn1c(=NC(=O)c2ccc(S(=O)(=O)N3CCOCC3)cc2)sc2cc(S(N)(=O)=O)ccc21,-6,11,3.6%,-0.7%,13%,8.7,0.9
COc1ccc(OC)c(S(=O)(=O)Nc2ccccc2C)c1,-12,-1,1.2%,2.7%[38.3 µM],18%,-0.1,-0.2
O=C(C1CCC1)N1CCN(S(=O)(=O)c2cccc(F)c2)CC1,13,?,-1.4%,2.6%,.,.,0.1
Cc1ccc(S(=O)(=O)NCCC(=O)Oc2ccc3ccc(=O)oc3c2)cc1,-8,-5,2.7%,1.7%,6%,4.0,0.4
CN(C)c1cccc(C(=O)OC(C(=O)Nc2ccc([N+](=O)[O-])cc2Br)c2ccccc2)c1 (stereo not given),23,2,1.0%,-0.4%,13%,1.7,0.2
Cc1cccc(NC(=O)CN(C)S(=O)(=O)c2ccccc2)n1,3,0,-0.8%,0.5%,9%,-0.7,1.0
CCn1c(=N)n(CC(=O)c2cccc([N+](=O)[O-])c2)c2ccccc21,-15,8,.,1.8%,19%,0.6,0.0
CCN1CCN(c2c(Cl)cccc2NC(=O)c2cc3ccccc3o2)CC1,14,.,-13%,13%,.,.,1.4
CCN(CC)C(=O)[C@H]1C[C@H](CC(=O)NCCCN(C)C)C(=O)N2CCc3c([nH]c4ccc(Cl)cc34)[C@]12C,-16,.,-0.7%,5.4%,.,.,-0.9
COc1ccc(C(=O)NC(=S)NNC(=O)c2cccc(C)c2)cc1,4,.,.,5.8%,.,.,19
COc1cc2[nH]c(=O)c(C(=O)NCc3ccccc3Cl)c(O)c2cc1OC,-6,-5,-0.4%,1.9%,2%,-0.1,-1.2
CCc1ccc(NC(=O)CSc2nccn(-c3ccc4c(c3)OCCO4)c2=O)cc1,-21,1,-12%,-0.2%,.,.,0.5
c1ccc(-c2noc(CSc3nnnn3C3CCCCC3)n2)cc1,7,9,0.4%,-3.6%,19%,18,-0.4

Structures listed so far shown as hits in Sfp PPTase inh.
SMILES | TRPML1 inh | Sfp PPTase inh | Menin MLL FP FL
Cc1cc(Cl)ccc1N=c1ssnc1Cl | 2 | 7.1µM* | -0.7

More entries.
SMILES,TRPML1 inh,TRPV1 PAM,ClpP mod,PINK1 expr mod,Sfp PPTase inh,Menin MLL FP FL,TRPML1 ag
O=c1c(S(=O)(=O)c2ccccc2)cn(Cc2ccccc2)c2cc(N3CCCC3)c(F)cc12,-13,.,-4.7%,-0.4%,.,.,0.6
O=C(NO)c1cc(OCC(F)(F)F)ccc1OCC(F)(F)F,-4,.,-3.5%,-0.9%,-2%,7.3,0.0
Cn1c(SCC(=O)NC(=O)c2cccc([N+](=O)[O-])c2)nnc1-c1ccc(F)cc1,14,-1,-0.4%,-1.2%,-1%,2.3,1.6
COc1ccc(Cl)cc1C(=O)NNC(=O)c1ccncc1,.,?,1.0%,-0.8%,25%,2.0,.
CC1CC(C)CN(S(=O)(=O)c2ccc(C(=O)N3CCN(c4ccccc4)CC3)cc2)C1 (stereo not given),42,2,0.7%,.,-3%,0.6,1.8
O=C(CSc1nccc(=O)[nH]1)Nc1ccc2c(c1)OCCO2,10,-5,.,2.9%,-6%,-0.3,-0.2
COc1ccc(S(=O)(=O)N2CCCCC2C(=O)O)cc1OC (stereo not given),18,?,0.7%,-0.2%,14%,-0.3,0.0
Cc1cc2c(cc1NC(=O)c1ccc(C(C)(C)C)cc1)n(C)c(=O)c(=O)n2C,-15,.,-8.8%,3.3%,.,.,0.6
CCc1nc(N2CCN(C(=O)c3ccco3)CC2)c2oc3ccccc3c2n1,-14,-12,-18%,?,-11%,-0.2,-0.2
N#C/C(=C\c1cccs1)Sc1nc2ccccc2s1,-3,9,-2.8%,3.4%,-23%,8.4,1.7
COc1ccc(CN2CCN(C(=O)c3cccc4ccccc34)CC2)cc1OC,7,-11,-5.6%,1.5%,?,-0.4,1.2
CCOc1ccc(N(C)C(=O)CCc2nnc3ccc(N4CCC5(CC4)OCCO5)nn23)cc1,16,14,-4.9%,-1.1%,1%,-3.5,-0.1
COc1cc(C2c3cc4c(cc3C(O)C3COC(=O)C23)OCO4)cc(OC)c1OC (stereo not given),13,.,1.3%&-3.1%,7.8%&1.0%,.,.,0.6&-0.4
Cc1ccc(N2CCN(C(=O)c3cc(C(=O)c4ccccc4C)c[nH]3)CC2)c(C)c1,3,1,-2.9%,-0.4%,7%,-1.7,4.8
CCn1nc(C)c(CNC(=O)C2CCC(=O)N(CCc3ccc(Cl)cc3)C2)c1C (stereo not given),-1,-7,-0.1%,-1.4%,8%,.,-1.1
CCOC(=O)c1ccc(NC(=O)Cn2ccc([N+](=O)[O-])n2)cc1,?,8,1.6%,0.6%,8%,-4.2,-0.3
COc1cc(OC)nc(N/N=C(\c2ccccc2)c2ccncc2)n1,-5,-2,-2.8%,-2.8%,?,9.1,0.1
Cc1ccc(NC2CCCN(C(=O)c3cccnc3)C2)cc1C (stereo not given),-11,18,0.8%,-0.2%,11%,.,0.9
CC1CCCN(CCCNC(=O)C2CCCN(c3ncnc4c3nc3n4CCCCC3)C2)C1 (stereo not given),10,-5,.,0.5%,-2%,-1.2,-0.5
C#CCOCCOCCOCCNc1nc(N2CCN(C(=O)Cn3cc(CC(C)O)nn3)CC2)nc(N2CCN(C(=O)[C@H]([C@@H](C)O)n3cc(CCCCN)nn3)CC2)n1 (stereo not given in full),26,.,-24%,2.3%,.,.,-0.2
CCNC(=S)NC1CC2CCC(C1)N2Cc1ccccc1 (stereo not given),-6,22,-2.4%,5.8%[38.3 µM],2%,3.0,1.0
O=C(NCCOc1ccccc1)c1ccccc1Cl,-4,1,-3.9%,0.1%,10%,-2.4,-1.0
O=C(COC(=O)C1(c2ccc(F)cc2)CCCC1)NCc1ccco1,13,-2,.,-0.9%,56µM*,2.1,2.0
Cc1c(CN2CCc3c([nH]c4ccccc34)C2C2CCCCC2)cnn1C (stereo not given),-19,7,.,0.4%,9%,-4.3,0.7
Cc1cc(C)cc(NC(=O)CN2C(=O)CCc3cc(S(=O)(=O)N4CCCCC4)ccc32)c1,6,.,-6.5%,2.2%,.,.,1.1
C=CCOc1cccc(C2C(C(=O)c3ccco3)=C(O)C(=O)N2Cc2cccnc2)c1 (stereo not given),-12,-5,1.6%,0.3%,-3%,-4.8,-1.3
O=C(CCc1nnc2n(CCc3ccccc3)c(=O)c3ccccc3n12)NCCCN1CCCCC1,0,-15,4.3%,1.7%,7%,.,0.4
CCN(CC)C(=O)CN1C(=O)C2(OCC(C)(c3ccccc3)CO2)c2ccccc21 (stereo not given),8,-7,-9.5%,.,3%,5.2,1.3
O=C(O)C(NC(=O)c1ccccc1)=C(Cl)Cl,-4,.,1.1%,1.9%,.,.,0.0
Cc1cc(/C=C2\SC(N)=NC2=O)c(C)n1-c1ccc(F)cc1,2,-5,.,-0.6%,-9%,7.7,3.4
COc1ccc(C(=O)N2CCC3(CC2)NCCc2[nH]cnc23)cc1,22,2,-5.2%,0.6%,-1%,.,0.4
CCc1ccc(NC(=O)C(=O)NCC(c2ccc3c(c2)OCO3)N2CCN(C)CC2)cc1 (stereo not given),-3,.,-4.0%,-2.0%,.,.,2.9
COc1ccccc1NC(=O)CCC(=O)OCc1ccc(Cl)cc1,1,12,0.4%,-0.4%,-13%,0.4,1.1
O=C(CCc1ccccc1)NC1(Cc2ccccc2)CCN(CCCc2ccccc2)C1=O (stereo not given),25,-5,-2.2%,-0.1%,.,.,0.4
COC(=O)N1CCC2(CCN(Cc3cc(C(F)(F)F)cc(C(F)(F)F)c3)CC2)CC1,.,.,.,3.4%,9%,-1.0,.
CCOc1cc(NC(=S)NCCCN2CCOCC2)c(OCC)cc1NC(=O)C1CC1,7,-2,1.8%,0.1%,9%,-6.2,0.1
Cc1ccc(CNC(=O)CCCn2c(=O)[nH]c3ccc(Br)cc3c2=O)cc1,-6,.,1.2%,1.4%,.,.,-0.8
O=C(NC(=S)Nc1ccccc1)c1cc([N+](=O)[O-])ccc1N1CCOCC1,5,8,-2.4%,0.4%,8%,-8.8,-0.4
CCOC(=O)C1CCC(CN(Cc2ccc(OC)cc2)S(=O)(=O)c2ccc(F)c(C(=O)Nc3cc(C)ccc3C)c2)CC1 (stereo not given),-14,.,-1.3%,0.5%,.,.,0.8
CC1=Nn2c(nnc2C2CCCCC2)SC1,-11,6,-4.0%,1.0%,79µM*,2.5,0.3
O=C(COc1ccc(Cl)cc1)NCc1n[nH]c(=O)c2ccccc12,5,-9,-1.9%,-1.2%,.,.,0.4
Cc1ccc(C)c(N2CCN(C(=O)c3cc4ccc5cccnc5c4[nH]3)CC2)c1,4,.,-11%,4.5%,.,.,2.8

Ordered by SMILES length (highest first): three of the compounds above.
SMILES,TRPML1 inh,TRPV1 PAM,ClpP mod,PINK1 expr mod,Sfp PPTase inh,Menin MLL FP FL,TRPML1 ag
CCn1nc(C)c(CNC(=O)C2CCC(=O)N(CCc3ccc(Cl)cc3)C2)c1C (stereo not given),-1,-7,-0.1%,-1.4%,8%,.,-1.1
CCOC(=O)c1ccc(NC(=O)Cn2ccc([N+](=O)[O-])n2)cc1,?,8,1.6%,0.6%,8%,-4.2,-0.3
COc1ccc(Cl)cc1C(=O)NNC(=O)c1ccncc1,.,?,1.0%,-0.8%,25%,2.0,.
